# Source: PubChem
# KCNQ2 pot: enhances the rat KCNQ2 potassium channel. B-score at 10 µM. O88943. CHO-K1 KCNQ2, FluxOR thallium flux fluorescence; stronger effect = higher value. AID 2239. 0.54% of 310,000 active;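 active = fluorescence ratio B-score at least 3 SD of library B-scores, with initial fluorescence B-score within 3 SD, cut at about 5.3 in these data; same plate scores as AID 2156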;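 note: B-score of peak minus minimum over baseline fluorescence ratio after K+ and Tl+ stimulus; positive B-score means potentiation of KCNQ2 with more thallium influx and brighter signal; only the inactives scoring about 0 or higher are listed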
# KCNQ2 pot baseline: second read-out of KCNQ2 pot, no call of its own (marks repeat the call); B-score; compound at 10 µM; measured here: initial fluorescence intensity artifact check;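 brightness before thallium and not channel activity; 0 = typical well and far values either way flag optical interference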
# * marks the source's active call; other numbers are inactive results; · = no result given; & = joins results of further samples. This is a subset. The share of hits here may be higher or lower than overall.
1) CN(C)CCOc1ccccc1Cc1ccccc1
2) C[C@@H]1C[C@H]2[C@@H]3C[C@H](F)C4=CC(=O)C=C[C@]4(C)[C@@]3(F)[C@@H](O)C[C@]2(C)[C@@]1(O)C(=O)COC(=O)C(C)(C)C
3) Nc1ncnc2nc[nH]c12
4) COC(=O)C1=CO[C@@H](OC2OC(CO)C(O)C(O)C2O)[C@@H]2[C@@H](C)[C@@H](O)C[C@H]12 (stereo partly drawn)
5) O=C(O)/C=C/c1ccc(O)cc1
6) CCC(=O)O[C@]1(C(=O)SCF)[C@H](C)C[C@H]2[C@@H]3C[C@H](F)C4=CC(=O)C=C[C@]4(C)[C@@]3(F)[C@@H](O)C[C@@]21C
7) O=C(O)CNC(=O)c1ccccc1
8) CCCCCCCC/C=C\CCCCCCCC(=O)O
9) C=C1c2cccc(O)c2C(O)=C2C(=O)[C@]3(O)C(O)=C(C(N)=O)C(=O)[C@@H](N(C)C)[C@@H]3[C@@H](O)[C@H]12
10) Cn1c(=O)c2c(ncn2CCO)n(C)c1=O
11) Cc1cccc(C)c1NC(=O)C1CCCCN1C (stereo not drawn)
12) COc1ccc2nc(NC(=O)Nc3ccccc3)sc2c1

assay / entry	1	2	3	4	5	6	7	8	9	10	11	12
KCNQ2 pot	0.7	0.01	1.5&0.8	0.47	0.87	1.4	0.69	6.8*	0.18	0.23	2	0.93
KCNQ2 pot baseline	0.86	-0.08	·	0.4	-1.9	-0.6	-1.6	0.75*	-1.6	-0.73	-0.73	0.22

# Some values from above:
# KCNQ2 pot result of cpd 7 is entered as 0.69
# KCNQ2 pot result of cpd 2 is entered as 0.01

# 3 of the entries above in order of the KCNQ2 pot value, rising.
9) C=C1c2cccc(O)c2C(O)=C2C(=O)[C@]3(O)C(O)=C(C(N)=O)C(=O)[C@@H](N(C)C)[C@@H]3[C@@H](O)[C@H]12
12) COc1ccc2nc(NC(=O)Nc3ccccc3)sc2c1
11) Cc1cccc(C)c1NC(=O)C1CCCCN1C (stereo not drawn)

assay / entry	9	12	11
KCNQ2 pot	0.18	0.93	2
KCNQ2 pot baseline	-1.6	0.22	-0.73

# Given with the structure last: two of the compounds above
item	KCNQ2 pot	KCNQ2 pot baseline	SMILES
10	0.23	-0.73	Cn1c(=O)c2c(ncn2CCO)n(C)c1=O
11	2	-0.73	Cc1cccc(C)c1NC(=O)C1CCCCN1C (stereo not drawn)
